PLK1 inh: human PLK1 kinase inhibitors, primary screen, biochemical, TR-FRET; Serine/threonine-protein kinase PLK1 (Homo sapiens), P53350; inhibition, % at 10 µM; 0.53% of 97,000 active; AID 619, 2007; recombinant PLK1 kinase, TR-FRET peptide phosphorylation;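 active means inhibition of 50% or more in the single-concentration screen; inactive means inhibition below 50%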;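 further: 0% = DMSO max control and 100% = H-89 dihydrochloride min control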
HIV Rev-RRE inh: HIV-1 Rev-RRE binding inhibitors, primary screen, biochemical, FRET, protein-RNA interaction. P05866. Rev peptide-RRE RNA binding. inhibition, % at 8 µM. 0.79% of 97,000 active. AID 704, 2007;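 active means inhibition above the screen-wide mean plus 3 SD, cut at about 35% in these data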;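 further: 0% = median DMSO wells and 100% = median Neomycin B control wells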
Target sequence (P05866 whole entry, looked up): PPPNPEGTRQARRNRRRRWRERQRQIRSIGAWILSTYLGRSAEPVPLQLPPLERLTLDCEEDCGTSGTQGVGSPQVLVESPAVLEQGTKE
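Assay system: labelled RRE RNA duplex and labelled Rev peptide / Medium: HEPES pH 7.5 salt buffer with EDTA / Reagent: labelled Rev peptide / Schedule: 5 + 15 min at 25 °C / Signal: FRET, excitation 480 nm, emission 540 nm donor and 671 nm acceptor / Benchmarks: DMSO and neomycin B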
Plk1 PBD FP: Plk1 polo box domain binding inhibitors, primary screen, biochemical, fluorescence polarization; Serine/threonine-protein kinase PLK1 (Homo sapiens), P53350; Plk1 PBD phosphopeptide binding; inhibition, %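 (tested at about 20 µM)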; 0.13% of 97,000 active; AID 693, 2007; in the data active means inhibition above about 34%, passing the limit was not always enough
LYP act: LYP phosphatase activators, primary screen, biochemical, DiFMUP fluorescence, 2 µM. recombinant LYP; 0 = plate median, 100 = signal doubled. activation, % at 2 µM. 0.11% of 96,000 active;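 active means activation at 2 µM above a set limit, the mean plus 5 SD, cut at about 37% in these data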
EphB4 ephrin blk: EphB4-ephrin-B2 interaction antagonists, primary screen, biochemical, TNYL-RAW peptide probe, fluorescence polarization | Ephrin type-B receptor 4 (Homo sapiens), P54760 | EphB4 LBD / TNYL-RAW-Alexa532 peptide | inhibition, % at 7 µM | 0.15% of 97,000 active | AID 720, 2007;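 active means inhibition above the screen-wide mean inhibition plus 3 SD, cut at about 15% in these data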;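 further: 0% = DMSO wells and 100% = excess unlabeled TNYL-RAW peptide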
Target sequence (P54760 whole entry, looked up, the tested form may be a part): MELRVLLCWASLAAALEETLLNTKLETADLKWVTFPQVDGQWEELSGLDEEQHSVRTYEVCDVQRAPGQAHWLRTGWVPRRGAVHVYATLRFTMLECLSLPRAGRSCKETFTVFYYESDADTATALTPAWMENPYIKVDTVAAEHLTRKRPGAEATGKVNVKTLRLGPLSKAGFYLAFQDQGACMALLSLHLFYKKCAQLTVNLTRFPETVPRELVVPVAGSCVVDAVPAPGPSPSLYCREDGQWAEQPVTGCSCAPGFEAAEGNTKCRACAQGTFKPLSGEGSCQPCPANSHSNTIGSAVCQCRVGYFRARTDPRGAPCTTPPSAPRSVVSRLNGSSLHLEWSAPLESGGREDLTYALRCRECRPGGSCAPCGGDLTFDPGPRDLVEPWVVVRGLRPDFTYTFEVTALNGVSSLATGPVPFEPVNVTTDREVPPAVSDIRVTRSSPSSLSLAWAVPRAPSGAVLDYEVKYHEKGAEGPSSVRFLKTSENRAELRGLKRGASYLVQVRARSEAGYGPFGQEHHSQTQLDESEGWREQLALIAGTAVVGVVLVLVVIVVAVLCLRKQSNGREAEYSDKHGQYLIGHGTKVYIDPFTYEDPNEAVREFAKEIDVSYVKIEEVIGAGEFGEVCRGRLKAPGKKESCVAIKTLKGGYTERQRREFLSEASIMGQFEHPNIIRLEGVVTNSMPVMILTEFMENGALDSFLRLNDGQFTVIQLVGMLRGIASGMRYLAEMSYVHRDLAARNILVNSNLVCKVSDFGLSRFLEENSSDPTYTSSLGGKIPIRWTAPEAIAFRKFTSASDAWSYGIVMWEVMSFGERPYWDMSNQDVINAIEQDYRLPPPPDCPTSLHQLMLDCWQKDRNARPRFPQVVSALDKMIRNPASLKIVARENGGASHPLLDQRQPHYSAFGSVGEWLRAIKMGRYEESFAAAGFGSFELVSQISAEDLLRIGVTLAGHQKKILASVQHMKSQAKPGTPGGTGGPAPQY
LYP inh 2: PTPN22 phosphatase inhibitors, primary screen, biochemical, DiFMUP fluorescence, 2 µM | recombinant LYP catalytic domain | inhibition, % at 2 µM | 0.21% of 96,000 active | AID 640, 2007;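 active means inhibition at 2 µM at or above a set limit, the screen mean plus 3 SD, cut at about 24% in these data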;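 further: 0% = DMSO with enzyme and 100% = enzyme fully blocked by orthovanadate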
Candida biofilm: clotrimazole potentiators killing Candida biofilms, primary screen, with clotrimazole, Alamar Blue; C. albicans biofilm + clotrimazole; inhibition, % at 6 µM; 0.14% of 85,000 active; AID 834, 2007;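 active means inhibition above 20%; inactive means inhibition below 20%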;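 further: preformed 24 hr biofilms exposed to compound for 48 hr; 0% = biofilm without compound and 100% = blank killed by clotrimazole plus chlorhexidine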
Numbers without * were called inactive; / = not tested or not shown.

Screens in order – PLK1 inh	HIV Rev-RRE inh	Plk1 PBD FP	LYP act	EphB4 ephrin blk	LYP inh 2	Candida biofilm
1: Cc1ccc(CCNC(=O)CCNS(=O)(=O)c2ccc3c(c2)c(=O)n(C)c(=O)n3C)cc1
→ -1	10	-8	-2	1	1	/
2: C=CCn1c(-c2ccc(Cl)cc2)ccc(C#N)c1=O
→ -16	6	-42	-5	4	8	/
3: O=C(Nn1cnc2ccccc2c1=O)c1ccc(F)cc1Cl
→ -6	11	-5	-8	5	8	10
4: O=C(O)CCN=C1CCCc2ccccc2N1
→ 2	5	18	-2	1	1	4
5: Cc1ccc(-n2c(CCC(=O)O)ccc2-c2cccs2)cc1C
→ -5	7	-11	-2	6	5	8
6: CC1(C)CC(=O)C2=C(C1)N(Cc1ccccc1)C(=O)C2(O)C(F)(F)F (stereo not given)
→ -11	4	-15	-3	2	5	7
7: Cc1nnnn1-c1cccc(C(=O)O)c1
→ -13	6	27	7	-7	-6	7
8: Cc1cc2ncn(C3CC(=O)N(C)C3=O)c2cc1C (stereo not given)
→ -10	7	-2	-3	2	7	6
9: COc1ccc(NC(=O)CN2C(=O)c3cccc4cccc2c34)c(OC)c1
→ -4	0	6	0	-2	1	1
10: CCCCCCCCCCn1cc(C(C)=O)c(=O)[nH]c1=O
→ -14	1	-30	12	-4	-8	/
11: COCCNC(=O)COC(=O)c1nsc(Cl)c1Cl
→ -6	8	-20	2	-2	-2	/
12: CCCOc1ccc(-c2nc(OC)c3ccccc3n2)cc1
→ -10	20	-55	-6	1	7	0
13: O=C(CSc1nc2c(c(=O)n1-c1ccc(F)cc1)SCC2)N1CCCC1
→ 6	1	3	15	-6	-17	/
14: CCOC(=O)NC(CC(=O)O)c1ccc(OCC)cc1 (stereo not given)
→ -7	11	7	4	-3	-6	/
15: CSc1nsc(SC)c1NC(=O)OCC1CCCO1 (stereo not given)
→ -9	1	-9	2	1	-4	/
16: CCCC(=O)N(c1ccc(F)cc1)C1C=CS(=O)(=O)C1 (stereo not given)
→ 2	1	-11	2	-3	-3	9
17: CC(=O)Nc1ccc(-c2cn3cccnc3n2)cc1
→ -20	11	-7	-3	4	2	/
18: O=C(Oc1c(Br)cc(C(=S)N2CCOCC2)cc1Br)c1ccc(Cl)cc1
→ 13	6	16	4	12	1	/
19: COc1c(F)c(F)c(C(=O)O)c(Nc2ccccc2C)c1F
→ -15	6	-18	1	-4	3	0
20: COc1ccc(CCNC(=O)c2ccccc2NC(=O)c2ccco2)cc1OC
→ -10	3	11	3	-9	-4	5
21: O=C1c2ccccc2C(=O)N1Nc1ccccc1
→ -8	4	-31	-2	1	5	/
22: CCOC(=O)C1=C(NC(=S)NC(=O)c2ccccc2)c2ccccc2CC1(C)C
→ 6	-6	-12	0	-6	3	/
23: O=S(=O)(c1cc(-c2nc3ccccc3s2)ccc1Cl)N1CCOCC1
→ -7	7	-24	-1	2	4	/
24: Cc1cc2c(c(=O)o1)C1(C(=O)N(CC(=O)O)c3ccccc31)C(C#N)=C(N)O2 (stereo not given)
→ -10	49*	-46	0	-2	-2	5
25: Cc1ccccc1NC(=O)N1C2CCC1CC(O)(c1cccnc1)C2 (stereo not given)
→ -8	2	-19	1	-5	0	2
26: O=C(Cc1ccccc1)N(c1ccc(F)cc1)C1C=CS(=O)(=O)C1 (stereo not given)
→ -10	-2	-32	-1	-5	1	6
27: CC(C)COC(=O)Nc1nnc(SCCOc2ccccc2)s1
→ -15	3	17	-13	-2	17	/
28: Nc1c(C(=O)NCC2CCCO2)c2nc3ccccc3nc2n1-c1ccccc1 (stereo not given)
→ -15	7	10	1	-4	-1	0
29: Cc1ccc(OCC(=O)Nc2ccccc2N2CCOCC2)c(C)c1
→ 1	12	-2	-10	5	13	-2
30: COc1ccc(CCN2CC(O)=C(c3nc(C)cs3)C2=N)cc1OC
→ -8	7	-14	0	8	2	0
31: COc1cc(C(=O)NCC(c2cccnc2)N2CCN(C)CC2)cc(OC)c1OC (stereo not given)
→ -2	-5	13	1	-5	-2	11
32: CCCS(=O)(=O)N1CCCC(C(=O)NCCN(Cc2ccccc2)C(C)C)C1 (stereo not given)
→ -7	-4	4	-3	-15	2	0
33: COC(=O)c1cc(CSc2nc3ccc(C)cc3[nH]2)oc1C
→ -2	5	-9	10	-6	-13	1
34: CCCC(O)(CCC)C(=O)NNc1ccccc1
→ -10	7	-10	10	-3	-9	13
35: COc1cc2c(cc1NC(=O)Nc1ccccc1)oc1ccccc12
→ -2	5	0	6	-11	-2	/
36: O=C(NC(Cc1c[nH]c2ccccc12)c1nnc2n1CCCCC2)c1cccs1 (stereo not given)
→ -9	0	-4	-5	2	4	10
37: O=C(CN1C(=O)C2C3C=CC(C3)C2C1=O)NC1CCCc2ccccc21 (stereo not given)
→ -3	6	3	-1	2	0	/
38: Cc1nc2ncnn2c(C)c1CCC(=O)NC(C)c1ccc2c(c1)OCCO2 (stereo not given)
→ -4	7	-16	4	2	-6	/
39: CN(C)C(=O)COn1c(SCC(=O)N(C)C)nc2ccccc2c1=O
→ -15	0	-15	-9	-3	7	/
40: Nc1ccc(N(c2ccccc2)c2ccc(N)cc2)cc1
→ -6	-2	-5	0	-9	2	6

Structural class: those above with a cyano group (2)
Screens in order – PLK1 inh	HIV Rev-RRE inh	Plk1 PBD FP	LYP act	EphB4 ephrin blk	LYP inh 2	Candida biofilm
2: C=CCn1c(-c2ccc(Cl)cc2)ccc(C#N)c1=O
→ -16	6	-42	-5	4	8	/
24: Cc1cc2c(c(=O)o1)C1(C(=O)N(CC(=O)O)c3ccccc31)C(C#N)=C(N)O2 (stereo not given)
→ -10	49*	-46	0	-2	-2	5

Later entries.
Screens in order – PLK1 inh	HIV Rev-RRE inh	Plk1 PBD FP	LYP act	EphB4 ephrin blk	LYP inh 2	Candida biofilm
41: COC(=O)c1ccc(-n2cncn2)c(F)c1
→ -2	7	-33	6	7	-2	/
42: O=C(Nc1nnc(-c2ccccc2)o1)c1ccc(Cl)cc1
→ -7	-1	-14	-4	0	3	6
43: CCn1c(Cc2ccccc2)nnc1SCC(=O)c1cccc([N+](=O)[O-])c1
→ -13	1	5	1	1	4	/
44: COc1ccc(NC(=O)COC(=O)CCCc2c[nH]c3ccccc23)cc1OC
→ -8	3	-25	-7	1	9	5
45: CC(C)Oc1ccc(/C(O)=C2/C(=O)C(=O)N(Cc3cccnc3)C2c2ccco2)cc1 (stereo not given)
→ -20	-5	27	10	-8	-4	2
46: COc1ccc(OCCSc2nnnn2C2CCCCC2)cc1
→ -10	15	10	-2	5	0	5
47: COc1cc2[nH]c(=O)n(CCC(=O)N3CCC(N4CCCCC4)CC3)c(=O)c2cc1OC
→ -14	-2	35	10	-6	-7	/
48: O=C(/C=C/c1ccccc1)N/C(=C\c1ccco1)C(=O)NCCO
→ -26	6	-11	8	-3	-6	/
49: Cc1ccc(OCc2nnc(SCC(=O)O)n2N)cc1
→ -1	6	-1	17	-4	-20	8
50: O=C(Nc1ccc(-n2nncc2-c2ccco2)cc1)c1ccc(F)cc1
→ -16	5	28	-4	-2	3	0
51: COc1ccc(C(=O)O/N=C/c2ccc(S(=O)c3ccc(Cl)cc3)nc2)cc1 (stereo not given)
→ -5	8	-9	-8	-2	13	/
52: COc1ccc(NC(=O)C2(c3ccc(NC(=O)c4ccc(C)cc4)cc3)CCCC2)cc1
→ -14	8	12	4	1	0	/
53: COc1c(N2CCN(C(=S)Nc3ccccc3)C(C)C2)c(F)cc2c(=O)c(C(=O)O)cn(C3CC3)c12 (stereo not given)
→ -1	-4	15	-14	-7	16	/
54: Cc1sc(CO)c(Sc2ccccc2)c1C(=O)O
→ 3	1	31	0	3	0	0
55: O=C(O)C1CCN(S(=O)(=O)/C=C/c2ccccc2)CC1
→ 1	1	-25	8	-7	-7	4
56: CCOC(=O)c1[nH]c(C)c(CN(CCc2ccccc2)C(=O)CCC(=O)O)c1C
→ -17	-1	10	-1	2	1	6
57: COc1ccc(S(=O)(=O)N(C)CC(=O)NCc2ccco2)cc1
→ -14	6	2	1	4	-4	-1
58: O=C(CCN1CCOCC1)Nc1ccccc1
→ -1	8	6	4	3	-2	-3
59: N/C(Cc1ccc([N+](=O)[O-])cc1)=N\OC(=O)COc1cccc2ccccc12
→ -14	12	27	6	4	-3	/
60: Cc1cccc(CSCCNC(=O)CSCc2ccc([N+](=O)[O-])cc2)c1
→ -9	13	9	1	2	4	/

Single records, from the list above:
Results for CC(C)Oc1ccc(/C(O)=C2/C(=O)C(=O)N(Cc3cccnc3)C2c2ccco2)cc1 (stereo not given) → PLK1 inh = -20; HIV Rev-RRE inh = -5; Plk1 PBD FP = 27; LYP act = 10; EphB4 ephrin blk = -8; LYP inh 2 = -4; Candida biofilm = 2
Results for O=C(Nc1nnc(-c2ccccc2)o1)c1ccc(Cl)cc1 → PLK1 inh = -7; HIV Rev-RRE inh = -1; Plk1 PBD FP = -14; LYP act = -4; EphB4 ephrin blk = 0; LYP inh 2 = 3; Candida biofilm = 6
Results for COc1ccc(NC(=O)COC(=O)CCCc2c[nH]c3ccccc23)cc1OC → PLK1 inh = -8; HIV Rev-RRE inh = 3; Plk1 PBD FP = -25; LYP act = -7; EphB4 ephrin blk = 1; LYP inh 2 = 9; Candida biofilm = 5

More compounds follow:
Screens in order – PLK1 inh	HIV Rev-RRE inh	Plk1 PBD FP	LYP act	EphB4 ephrin blk	LYP inh 2	Candida biofilm
61: O=C(c1ccc(Cl)cc1)c1cnc(-c2ccccc2)s1
→ -8	9	-27	5	0	-3	/
62: Cc1c(OCC(=O)OC(C)C)ccc2c3c(c(=O)oc12)CCC3
→ -7	6	8	-4	0	2	4
63: Cc1ccc(-c2nc3ccccc3[nH]2)cc1NC(=O)c1ccc2c(c1)OCO2
→ -3	3	20	-5	-5	8	/
64: Cc1nn2c(N3CCN(C(=O)c4ccco4)CC3)cc(C(C)(C)C)nc2c1-c1ccc(Cl)cc1
→ -18	10	1	8	7	-4	/
65: O=C(CNS(=O)(=O)c1ccc(Br)cc1)N1CCOCC1
→ -7	8	3	4	3	-1	4
66: COCCN1CN=C(Nc2nc3ccccc3o2)NC1
→ -6	5	8	-6	-3	8	0
67: COc1ccc(Cc2nc3ccc(S(=O)(=O)N4CCOCC4)cc3[nH]2)cc1OC
→ -7	9	-13	-9	2	12	5
68: CCOc1ccccc1NC(=O)CCn1c(=O)oc2ccccc21
→ -5	-2	6	1	-6	-1	2
69: COCCN1C(=O)C(O)=C(C(=O)c2cccs2)C1c1ccccc1 (stereo not given)
→ -12	1	12	-1	-10	6	7
70: CCOc1ccccc1NC(=O)Nc1c(C)n(-c2ccccc2)c(=O)n1C
→ -8	1	12	2	1	2	9
71: CCC(C)[C@H](NC(=O)NCc1ccccn1)C(=O)OC (stereo not given in full)
→ -8	7	-3	5	3	-2	1
72: CN(C)c1cc[n+](CC(=O)Nc2cc(C(F)(F)F)ccc2Cl)cc1
→ -4	-8	15	0	3	4	/
73: CC1(C)Oc2ccc(NC(=O)c3ccco3)cc2O1
→ -4	10	16	2	3	-1	4
74: Cc1cc(C(=O)CSc2nnc(-c3ccc(Cl)cc3)n2C)c(C)n1CC1CCCO1 (stereo not given)
→ -10	1	-1	0	-5	2	4
75: O=C(CSCc1cccc(Cl)c1)NCc1ccc2c(c1)OCO2
→ -8	4	-2	-8	-4	10	-2
76: CCOc1ccc(/C=C/C(=O)c2c(O)c3ccccc3oc2=O)cc1
→ -31	9	-4	12	2	-8	/
77: Cc1oc(C)c(C(=O)NCCCC(=O)O)c1C(=O)NCCCC(=O)O
→ -5	1	-4	12	-10	-14	-3
78: CCOc1ccc(N2C(=O)CC(Sc3nc(-c4cccs4)cc(C(F)(F)F)c3C#N)C2=O)cc1 (stereo not given)
→ 4	12	1	-16	3	19	/
79: COC(=O)c1cn(NC(=O)C2CCC(C(C)(C)C)CC2)c(=O)c2ccccc12 (stereo not given)
→ -9	7	-2	-4	-3	2	/
80: Cc1ccccc1OCC(=O)NNC(=O)Nc1ccc(Cl)cc1
→ -10	1	-24	13	13	-8	/
81: COc1ccc(C(=S)N(C)C)cc1OC
→ -16	8	-21	12	-4	-14	/

Only part of the results is shown; count on the stated rates, not on these rows.
